Screens deposited in PubChem BioAssay by several laboratories.
PABP FP inh: PABP poly(A) RNA binding inhibitors, primary screen, biochemical, fluorescence polarization, uHTS. Polyadenylate-binding protein 1 (Homo sapiens), P11940. inhibition, % at 35 µM. 290,000 tested, 1% active. AID 2014, 2009;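 active = 50% or more with normal probe brightness, or confirmed in later tests; about a fifth of its hits are not listed in these tables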;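 also: calls also rest on retests at 20 µM and on dose response follow-up; controls were probe without protein and protein plus probe with vehicle; some compounds called inactive have numbers as strong as hits; many hits fall short of the cut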
Target sequence (P11940 whole entry, looked up): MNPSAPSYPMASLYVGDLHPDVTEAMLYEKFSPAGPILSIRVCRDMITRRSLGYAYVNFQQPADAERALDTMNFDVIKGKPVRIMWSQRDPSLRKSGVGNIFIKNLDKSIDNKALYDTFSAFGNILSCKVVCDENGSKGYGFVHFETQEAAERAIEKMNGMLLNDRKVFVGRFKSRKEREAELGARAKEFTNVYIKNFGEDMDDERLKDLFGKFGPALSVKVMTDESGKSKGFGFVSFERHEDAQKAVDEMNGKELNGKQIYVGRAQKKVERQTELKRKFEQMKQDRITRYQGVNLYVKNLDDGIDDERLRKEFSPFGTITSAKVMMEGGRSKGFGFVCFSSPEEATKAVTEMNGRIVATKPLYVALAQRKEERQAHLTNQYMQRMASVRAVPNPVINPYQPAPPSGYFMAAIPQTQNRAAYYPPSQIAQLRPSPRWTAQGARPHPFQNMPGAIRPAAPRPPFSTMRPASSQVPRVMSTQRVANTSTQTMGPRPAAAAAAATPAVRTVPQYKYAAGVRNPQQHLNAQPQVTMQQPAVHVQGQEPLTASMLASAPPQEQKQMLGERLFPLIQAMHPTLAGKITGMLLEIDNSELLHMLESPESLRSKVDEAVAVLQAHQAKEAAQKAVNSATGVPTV
MT1-MMP act inh: blockers of MT1-MMP proenzyme processing, primary screen, HT1080 RFP-PRO-GFP cells, GFP/RFP fluorescence; GFP/RFP ratio fluorescence, overnight; percent of plate control window, DMSO zero; GFP/RFP ratio change, % at 20 µM; Matrix metalloproteinase-14 (Homo sapiens), P50281; 360,000 tested, 0.061% active;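 active = GFP/RFP ratio change of at least 30% with cell ATP level not reduced by more than half and red fluorescence within 50% of control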; also: strong numbers were not always called active
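Assay system: HT1080 cells carrying an RFP-PRO-GFP reporter | Dosing: Single dose of 20 µM compound, 1% DMSO final | Incubation: Cells overnight before dosing, compound overnight, 37 °C, 5% CO2 | Evaluation: GFP/RFP fluorescence ratio | Control set: DMSO and RFP-L50D-GFP cell wells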
Env fusion inh: inhibitors of HIV-1 Env-driven cell-cell fusion, primary screen, HeLa-JRFL effector, CEM21 target cells, luciferase. inhibition, % at 12.3 µM. 360,000 tested, 1.1% active;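 active = mean replicate inhibition score of at least 50 and every replicate individually at or above 50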;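 also: 0% = plate neutral controls and 100% = maraviroc near 300 nM; one replicate is shown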
eIF4H FP inh: human eIF4H binding inhibitors, primary screen, translation initiation inhibitor project, biochemical, uHTS, fluorescence polarization. Eukaryotic translation initiation factor 4H (Homo sapiens), Q15056. eIF4H fluorescence polarization binding assay. 290,000 tested, 0.94% active. inhibition, % at 35 µM. AID 2012, 2009;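 active = 50% or more with normal probe brightness, or confirmed in later tests; about a fifth of its hits are not listed in these tables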;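 also: calls also rest on retests at 20 µM and on dose response follow-up; 0% = protein and probe with vehicle and 100% = probe without protein; strong numbers were not always called active; many hits fall short of the cut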
Rce1 inhib: yeast Rce1p protease inhibitors, primary screen, biochemical, fluorescence, cell-free homogeneous; CAAX prenyl protease 2 (Saccharomyces cerevisiae (strain ATCC 204508 / S288c)), Q03530; yeast membranes, quenched prenylated peptide cleavage fluorescence; calls only; 290,000 tested, 0.27% active;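 active = fall in fluorescence gain of 50% or more versus controls, with final raw signal at or below 3038400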;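 also: plate controls were neutral control wells for no effect and wells lacking membranes for full effect; tested at 10 µM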
CSC inhib: cancer stem cell viability inhibitors, primary screen, luminescence; cancer stem cell-like cells viability; inhibition, % at 7.5 µM; 300,000 tested, 1.1% active;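 active = mean at 75% or more and at least half the replicates too; tested in HMLE shEcad cells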;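 also: 0% = median of negative and 100% = median of positive control wells; the first replicate is given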
Yeast UUG start: modulators of yeast start codon fidelity, primary screen, whole organism, S. cerevisiae, single point, plate reader; 350,000 tested, 0.13% active; S. cerevisiae UUG-firefly luciferase reporter, luminescence/redox ratio; AID 602363, 2012; activity score, % at 18.7 µM;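 active = replicate mean at a twofold rise or more, about +100% in these data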;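 also: firefly luciferase made from a UUG start codon reports start codon fidelity; reporter light over untreated wells divided by growth signal over untreated wells; some hits fall short of that in this replicate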
MT1-MMP act inh RFP: recorded beside MT1-MMP act inh, whose call it bears; RFP signal change, %; measured here: RFP expression control read;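 0 = vehicle wells; hits needed this value within 50% of zero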
* marks the source's active call; other numbers are inactive results; i = inactive; . = no result given; + = active, no number. A portion of the library (hit frequency here may not be typical).

Values run as follows: PABP FP inh, MT1-MMP act inh, MT1-MMP act inh RFP, Env fusion inh, eIF4H FP inh, Rce1 inhib, CSC inhib, Yeast UUG start
> O=C(O)CC1=C(O)C(=O)N(c2ccccc2)C1c1ccccc1 (centres undefined)
  7, 2, 6, ., -4, i, 0, 1
> COC(=O)CC1=C(C)C(=O)CC2C(C)(C)CCCC12C (centres undefined)
  4, 7, -1, ., 9, i, -12, -41
> CCOc1ccc(OCC)c(NC(=O)CN(C)S(=O)(=O)c2cccc3nsnc23)c1
  -7, -5, -4, -17, -10, i, 4, -8
> O=C(O)c1ccc(N=C2SCC(=O)N2Cc2ccccc2)cc1
  10, 0, -2, -10, 1, i, -18, .
> Cc1noc(C)c1COc1ccc(C(=O)NCc2cccs2)cc1
  ., 4, 0, 6, ., ., 2, -4
> CC1CCCC(NC(=O)COC(=O)CSc2ccc3ccccc3c2)C1C (centres undefined)
  -13, -3, 1, 3, -4, i, -9, .
> CCOc1ccc2c(=O)c(Oc3ccccc3OCC)coc2c1
  10, -7, -7, -50, -3, i, -2, -25
> O=C1CN(S(=O)(=O)c2cc(Cl)ccc2Cl)c2ccccc2N1
  -2, 1, 1, -6, 5, i, 3, -10
> COc1ccccc1NC(=O)CCN1C(=O)C2CC=C(Cl)CC2C1=O (centres undefined)
  0, 4, 1, ., -5, i, -8, -5
> NS(=O)(=O)c1ccc(N/N=C/c2cn(-c3ccccc3)nc2-c2cccs2)cc1
  -5, 3, 5, -7, -5, +, 81*, -10
> O=S(=O)(Nc1ccc(F)cc1)N1CCCCCC1
  3, -3, 2, ., 3, i, -4, -10
> CCCS(=O)(=O)NC(=O)C1(C)CCN(C(=O)c2ccc(F)c(Cl)c2)C1 (centres undefined)
  ., 2, 5, 32, ., ., ., -14
> COc1cc2cc(C)nc(Cc3cccc4ccccc34)c2cc1OC
  -7, 3, 5, -2, -6, i, 11, -17
> CC(=O)Nc1ccc(S(=O)(=O)NCCNc2ccccc2[N+](=O)[O-])cc1
  -8, 0, 0, 10, 10, i, 3, .
> Cc1cc(=O)[nH]c(NN=C2C3CC4CC(C3)CC2C4)n1
  0, 3, 5, 5, 6, i, -1, -37
> COc1ccc(CC2(CO)CCN(Cc3cc4ccccc4o3)CC2)cc1
  -4, 2, -6, -12, -8, i, 1, .
> CCOC(=O)CNC(=O)N1c2ccccc2Sc2ccccc21
  -4, -1, 2, -23, 0, i, 19, .
> Cc1cc(C)nc(N2CCCC(C(=O)NCCc3cccc(F)c3)C2)n1 (centres undefined)
  -1, 3, 1, ., 0, i, -12, .
> CCCn1c(=N)c(C(=O)NCc2ccc3c(c2)OCO3)cc2c(=O)n3cccc(C)c3nc21
  -13, 1, 1, ., 9, i, 9, -10
> CC(=O)c1ccc(-n2c(CCC(=O)O)ccc2-c2cccs2)cc1
  1, -6, 3, ., -12, i, -6, -28
> COc1ccc(-c2cc(C3CCN(Cc4cccc(C(F)(F)F)c4)CC3)[nH]n2)cc1
  -5, 0, -18, 33, -4, i, 55, -5
> O=C(NCC1CCCO1)C(=O)N/N=C/c1c(F)cccc1Cl (centres undefined)
  -1, -3, -5, 3, 0, i, ., -14
> OC(CNc1nc2ccccc2s1)c1ccccc1 (centres undefined)
  -7, 2, 3, ., -2, i, 8, -3
> CC(C)(C)NC(=O)CN(Cc1cccnc1)C(=O)c1csnn1
  3, -2, 7, -42, -6, i, 9, -6
> O=C(NCc1nc(-c2ccc(C(F)(F)F)cc2)no1)Nc1cc(Cl)cc(Cl)c1
  -1, 2, -8, 32, -2, i, 134*, .
> CCC(C(=O)N1CCN(S(=O)(=O)c2ccc(F)cc2)CC1)c1ccccc1 (centres undefined)
  ., -4, 0, 29, ., ., -6, -8
> O=C(Nc1ccccc1C(=O)N/N=C/c1ccco1)c1ccc(F)cc1
  -1, 6, 0, -14, 12, i, 1, .
> CCN(CC(=O)Nc1ccc(OC)cc1)C(=O)c1cc([N+](=O)[O-])ccc1N1CCOCC1
  ., -2, 1, -4, ., i, 3, -18
> COCC(=O)/C=C1\Sc2ccccc2N1C
  0, 7, 4, ., -8, i, -8, -7
> Cn1cc(Cl)c(C(=O)Nc2cnn(Cc3ccc(F)cc3)c2)n1
  -5, 8, 4, ., -4, i, 12, -19
> CCn1c(NCc2cc(Br)ccc2NS(=O)(=O)c2ccc(C)cc2)nc2ccccc21
  -10, -22, -26, ., -9, i, 17, 1
> O=[N+]([O-])c1cc(-c2nnc(Nc3ccc(O)cc3)c3ccccc23)ccc1N1CCOCC1
  -4, 3, -7, 38, -12, i, 18, .
> CCOC(=O)COc1ccccc1-c1ccno1
  0, 1, 3, 0, -4, i, -10, -14
> COc1ccc(C(=O)NNC(=O)c2ccccc2[N+](=O)[O-])cc1
  -10, 0, 1, ., -6, i, -4, .
> COC(=O)C1=C(C)N(CCCC(=O)O)C(=O)NC1c1cccc2ccccc12 (centres undefined)
  ., 3, 4, 8, ., i, -8, -8
> O=C(c1cccc(C(F)(F)F)c1)C1CCCN(C(=O)CCn2cnnn2)C1 (centres undefined)
  -2, 7, 3, 11, -2, i, 6, 1
> COc1ccc(OCC(=O)Nc2nc3c(s2)CCCC3)cc1
  4, 4, 3, -13, -4, i, ., -19
> c1csc(-c2nnc(N3CCOCC3)c3ccccc23)c1
  1, 8, -1, 3, -5, i, -3, .
> COc1ccc(-c2[nH]n(-c3ccc([N+](=O)[O-])cc3)c(=O)c2C=NCc2ccc(F)cc2)cc1
  4, -3, -3, 11, 2, i, -2, -11
> CC(C)CN1CCNC(=O)C1CC(=O)NCCc1cnn(-c2ccccc2)c1 (centres undefined)
  9, -4, -1, 11, -2, i, 0, .
> Cc1cc(Nc2nc3ccccc3nc2Cl)n(-c2ccccc2)n1
  -6, -13, -15, 13, -15, i, ., -19
> CCc1nc2ccc(C(=O)NCCOc3ccc(OC)cc3)cn2c1N(CC)Cc1cccc(Br)c1
  ., -6, -12, 28, ., ., ., -3
> Cc1ccc(-n2c(C)cc(C(=O)NS(=O)(=O)c3ccc(C)cc3)c2C)cc1
  6, -1, -4, 19, -12, ., -7, .
> c1ccc(COc2ncnc3c2ncn3CCCNCc2ccccn2)cc1
  ., 4, 5, 20, ., ., ., -27
> CCOC(=O)C[C@H]1c2cc(C(F)(F)F)ccc2S(=O)(=O)N1Cc1ccccc1
  ., 7, -6, -5, ., i, -8, 4
> C=CCc1ccc(OCc2ccc(C(=O)OC)o2)c(OC)c1
  4, 0, -3, ., 2, i, 1, .
> CCOC(=O)c1[nH]c2ccc(C)cc2c1N=CN(CC)CC
  -3, 0, -1, ., -4, i, -17, -14
> COc1ccc(C(=O)Cn2c(NCCCO)nc3ccccc32)cc1
  ., 0, 3, 24, ., ., ., -19
> Cc1ccc(NC(=O)c2sc3nc(N4CCOCC4)c4c(c3c2N)CCCC4)cc1
  ., 3, -1, 6, ., ., ., 2
> COc1ccc([N+](=O)[O-])cc1NC(=O)COC(=O)Cc1cc(OC)c(OC)c(OC)c1
  -4, 3, -1, -5, -9, i, -3, -11
> C#CCN(C[C@@H]1[C@@H](OC(=O)NCCCCCC)[C@@H](OC(=O)NCCCCCC)Cn2c(=O)ccc(=O)n21)S(=O)(=O)c1ccc(C)cc1
  ., -29, -37, -3, ., ., ., -13
> CN(C)S(=O)(=O)c1ccc(N2CCCC2)c(C(=O)Nc2ccccc2Br)c1
  ., 2, 1, 9, ., i, 14, 2
> CCOC(=O)/C(=N\Nc1ccccc1[N+](=O)[O-])c1csc(N)n1
  -2, 10, 3, -3, -1, i, -1, .
> Cn1c(=O)c2c(nc(NCCc3ccccc3)n2Cc2ccccc2)n(C)c1=O
  16, -14, -22, 87*, -7, i, 44, -17
> C=CCNC(=S)NNC(=O)c1cccn(Cc2cccc(Cl)c2)c1=O
  -5, 4, 5, -8, -8, i, -1, -12
> CCc1ccc2cc(C)cc(C)c2n1
  ., 1, 5, 5, ., ., ., -14
> Cc1cc(NS(=O)(=O)c2ccccc2)c(C)c(Cl)c1O
  8, -6, -2, -70, 2, i, 0, -16
> CC(NC(=O)Cc1cccs1)C(c1cccs1)N1CCN(c2ccccc2F)CC1 (centres undefined)
  -2, -3, -6, 62*, -15, i, -2, 13
> Cc1ccc(SCc2c(C(=O)N/N=C/c3cccs3)nnn2-c2nonc2N)cc1
  ., -2, -6, 7, ., ., ., -18
> CCNC(=O)COC(=O)/C=C/c1cccs1
  4, 0, 1, 6, -11, i, -4, -10

Remaining list, next part.
Values run as follows: PABP FP inh, MT1-MMP act inh, MT1-MMP act inh RFP, Env fusion inh, eIF4H FP inh, Rce1 inhib, CSC inhib, Yeast UUG start
> CCN(CC(=O)Nc1ccccc1C(F)(F)F)C(=O)c1ccccc1OCc1ccc(F)cc1
  ., 0, -8, 19, ., ., ., -8
> CC(=O)c1sc(N/N=C\c2c(O)ccc3ccccc23)nc1C
  ., -90, -3, -139, ., i, 24, -10
> CCCCCOC(=O)c1ccc(N2C(=O)C3C4C=CC(C4)C3C2=O)cc1 (centres undefined)
  5, 5, -7, ., 4, i, -1, 6
> COc1cnc(-c2cccc(C(F)(F)F)c2)nc1OC
  9, 3, 5, -25, 0, i, -2, .
> CNc1cnc(-c2ccc(C(=O)N3CCOCC3)cc2)cn1
  ., 1, 1, 0, ., ., ., -8
> CCCC(=O)Nc1cc(C)c(NC(=O)c2ccccn2)cn1
  18, 7, 7, -22, 0, i, -14, -10
> Cc1ccc2[nH]c3c(c2c1)CN(C(=O)CN1CCN(C(=O)c2ccco2)CC1)CC3
  28, ., ., 10, 30, i, -4, .
> O=C(Nc1ccc(Br)cn1)c1ccc2ccccc2c1
  -11, 2, -2, i, 4, i, 32, -13
> O=C(CSc1nnc(COc2ccccc2)n1-c1ccccc1)c1cccs1
  7, -3, -3, ., -3, i, 49, -11
> O=C(N1CCOCC1)N1CCOCC1
  -2, 1, 7, -42, 3, i, -9, 5
> CN(C)/C=C/C(=O)c1ccc(Cl)c([N+](=O)[O-])c1
  20, 4, 1, 5, -5, i, -1, .
> O=C(O)/C(=C\c1ccc(-c2ccccc2[N+](=O)[O-])o1)c1ccccc1
  6, -4, 4, 2, 4, i, 0, 3
> c1ccc2c(c1)OCC(c1nnc3n1-c1ccccc1SC3)O2 (centres undefined)
  -6, 3, -5, ., 0, i, -2, -7
> COC(=O)C1=C(C)N(CC(C)C)C(=O)C1
  -1, -3, -3, -20, 7, i, -1, -8
> Cc1ccccc1Nc1ccc([N+](=O)[O-])cn1
  -10, 0, -2, 17, -1, i, 2, 5
> CC(C)CSc1nnc2[nH]c(=O)cc(N)n12
  -1, 0, 1, ., 10, i, ., -19
> O=C(O)/C=C/c1cn(Cc2ccccc2)nc1-c1ccccc1
  9, 2, 1, ., -11, i, 10, .
> Cc1cc(C(=O)COc2ccccc2[N+](=O)[O-])c(C)n1C1CC1
  -1, 3, -5, -20, 10, i, 1, .
> COCCn1c(SCC(=O)N2CCCC2)nc2c([nH]c3ccccc32)c1=O
  -8, 0, 3, 9, -8, i, -5, -18
> CCN(CC)C(=O)c1[nH]cnc1C(=O)NCCCCCNC(=O)OC(C)(C)C
  ., -6, 3, 0, ., ., -12, 3
> CCOC(CNC(=O)c1[nH]c(C(F)(F)F)nc1-c1ccccc1)OCC
  ., -1, -1, -24, ., ., ., -5
> CC(=O)Nc1cccc(NC(=O)CSc2nc(=O)n(CCN3CCOCC3)c3c2CCCC3)c1
  ., 1, 1, -24, ., i, -5, -16
> CC(C)[C@@H]1C=C(C(=O)O)O[C@H](OCCCCO)C1
  4, -2, 2, -2, -3, i, 7, -11
